Screening results: PubChem, Broad Institute
T cruzi inh = T. cruzi replication inhibition | T. cruzi beta-gal in NIH3T3, luminescence, 90 h | inhibition, % (test concentration not listed) | actives 1.4% (n = 300,000) | AID 1885;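 active means mean inhibition across valid replicates above about 55%, limit read from the data; inconclusive means mean below that limit but half or more replicates reach it; inactive means mean below it, under half of replicates reach it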;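 further: signal also drops with host cell toxicity which is not excluded here; 0% = plate median of DMSO wells and 100% = zero luminescence signal; higher percent means less beta-gal luminescence so fewer parasites; stock transfer was 50 nL into about 50 µL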
AF4-AF9 inh = inhibitors of human MLL-AF4/AF9 interaction | P42568 | AlphaScreen, biotin-AF4 peptide binding to FLAG-AF9 | inhibition, % at 10 µM | actives 0.47% (n = 350,000) | AID 651704;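 active means every replicate reaching a set inhibition limit, whatever the replicate mean, cut at about 25% in these data; inconclusive means mean inhibition reaches that limit but some replicates miss it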;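 further: 0% = plate neutral control median and 100% = total signal loss; the record names both 10 and 1 µM as test concentration; the first replicate is given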
Target sequence (P42568 whole entry, looked up): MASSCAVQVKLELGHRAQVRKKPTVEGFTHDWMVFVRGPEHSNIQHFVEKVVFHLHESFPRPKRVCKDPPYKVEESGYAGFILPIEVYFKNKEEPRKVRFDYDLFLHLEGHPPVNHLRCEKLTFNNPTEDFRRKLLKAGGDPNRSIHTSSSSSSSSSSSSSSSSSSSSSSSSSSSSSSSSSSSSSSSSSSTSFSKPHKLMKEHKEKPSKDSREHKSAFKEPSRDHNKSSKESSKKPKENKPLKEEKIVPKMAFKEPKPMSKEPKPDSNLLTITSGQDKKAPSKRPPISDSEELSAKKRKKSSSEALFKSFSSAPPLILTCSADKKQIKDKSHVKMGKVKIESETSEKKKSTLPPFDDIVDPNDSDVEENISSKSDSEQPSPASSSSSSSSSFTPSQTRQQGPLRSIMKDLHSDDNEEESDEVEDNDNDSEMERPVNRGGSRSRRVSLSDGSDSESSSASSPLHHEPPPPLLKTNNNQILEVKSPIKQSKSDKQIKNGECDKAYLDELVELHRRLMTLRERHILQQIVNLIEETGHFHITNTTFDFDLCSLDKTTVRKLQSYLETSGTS
Ecoli rRNA inh = selective bacterial rRNA inhibition in E. coli | actives 1.6% (n = 350,000) | E. coli WT GFP vs humanized-ribosome RFP mutants, fluorescence, 24 h; hits give low values; DMSO median 0, no signal -100 | GFP signal change (wild-type ribosome), % (test concentration not listed) | AID 720706;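 active means significant combined selectivity score with lowered wild-type GFP, culture density cut under 30%, mutant RFP and density less affected; inactive means any of these conditions unmet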; further: one replicate is shown; some compounds called inactive have numbers as strong as hits
FGF22 binding = shifts melting point of recombinant human FGF22; Q9HCT0; recombinant FGF22 thermal shift, SYPRO orange fluorescence; percent of sucrose octasulfate shift, DMSO zero; calls only at 9.99 µM; actives 1.5% (n = 340,000);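 active means melting point raised past a set limit in the mean and every replicate; inconclusive means no clear call; three in four hits are not shown here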
Target sequence (Q9HCT0 whole entry, looked up): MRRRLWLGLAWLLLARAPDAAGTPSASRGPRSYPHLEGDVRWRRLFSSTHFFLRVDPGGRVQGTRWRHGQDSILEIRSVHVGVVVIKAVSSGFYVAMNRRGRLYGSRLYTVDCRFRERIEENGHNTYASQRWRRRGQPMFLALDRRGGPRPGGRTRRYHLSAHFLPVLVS
Beta cell apopt = beta cell apoptosis inhibition; INS-1E cytokine-induced death, ATP luminescence, 48 h; percent of positive-control rescue, neutral wells zero; protection from apoptosis, % (no concentration beside the values); actives 0.8% (n = 300,000); AID 435005;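 active means all replicates at 75% or more, or half of them and the mean; inconclusive means half reach 75% but not the mean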;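 further: 0% = cytokine-treated negative control wells and 100% = positive control rescue; higher means more ATP so stronger rescue from cytokine killing; wells of about 40 µL received 100 nL stock; the first replicate is given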
Calb FLC = affects C. albicans growth with fluconazole. C. albicans CaCi-2 (fluconazole-resistant clinical isolate) + fluconazole, Alamar Blue growth, 48 h. growth inhibition, % (test concentration not listed). actives 0.57% (n = 300,000);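 active means most replicates above 75%; inconclusive means exactly half above 75%; inactive means most below 75%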;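 further: all wells also contain fluconazole at 8 µg/ml as a sub-toxic cotreatment; 0% = median of DMSO wells and 100% = median of geldanamycin control wells; wells of about 8 µL received 7.5 nL stock; the first replicate is given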
ALR H2O2 inh = inhibitors of human sulfhydryl oxidase ALR; P55789; purified ALR, DTT oxidation, H2O2 HRP-luminol luminescence; inhibition, % (test concentration not listed); actives 3.8% (n = 290,000); AID 485317;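 active means mean and each replicate at 75% or more; inconclusive means only one of the two met; inactive means neither met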;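 further: stock transfer was 7.5 nL into about 7.5 µL; 0% = neutral wells and 100% = wells with inactivated enzyme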
Target sequence (P55789 whole entry, looked up): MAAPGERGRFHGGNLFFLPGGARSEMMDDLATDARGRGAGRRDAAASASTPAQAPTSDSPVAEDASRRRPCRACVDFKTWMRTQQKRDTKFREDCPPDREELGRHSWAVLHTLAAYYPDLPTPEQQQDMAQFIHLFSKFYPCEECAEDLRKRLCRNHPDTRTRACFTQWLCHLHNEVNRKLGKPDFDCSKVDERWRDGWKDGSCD
RanGTP-Impb inh = disruptors of Ran-importin-beta complex formation – biochemical, FRET, CFP-Ran, YFP-importin-beta, homogeneous, primary screen. cell-free CFP-Ran/YFP-importin-beta FRET ratio. inhibition, % (no concentration beside the values). actives 1.1% (n = 300,000);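 active means most replicates above 15%; inconclusive means exactly half above 15%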;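 further: 0% = DMSO wells and 100% = Ran loaded with GDP instead of GTP; wells of about 40 µL received 100 nL stock; the first replicate is given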
Ecoli rRNA inh OD600 = further read-out of Ecoli rRNA inh, marked with its call; OD600 change, %; measured here: OD600 growth;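 optical density of the mix in the first replicate; 0 = DMSO median and -100 = no signal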
Ecoli rRNA inh RFP = second read-out of Ecoli rRNA inh, no call of its own (marks repeat the call); RFP signal change, %; measured here: RFP humanized mutant strains;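 first replicate; 0 = DMSO median and -100 = no signal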
* hit, by the source's call; i = inactive; ? = inconclusive; . = no result given; & = joins results of further samples.

smiles,T cruzi inh,AF4-AF9 inh,Ecoli rRNA inh,Ecoli rRNA inh OD600,Ecoli rRNA inh RFP,FGF22 binding,Beta cell apopt,Calb FLC,ALR H2O2 inh,RanGTP-Impb inh
C/C(=N\NC(=O)c1cc(O)ccc1O)c1cccc(NC(=O)c2cccc(Cl)c2)c1,14,3.2,-28,-32,-3.2,i,-6,-1,90*,-2.9
O=C(CSc1nc2c(cnn2-c2ccc(F)cc2)c(=O)[nH]1)N1CCCCCC1,29,2.6,7,4,0.1,i,5,2,7,4.8
C[C@@H]1C(=O)O[C@H]2CC34[C@H]5C[C@@H](C(C)(C)C)[C@]36[C@@H](OC(=O)[C@@H]6O)O[C@@]4(C(=O)O5)[C@]21O (stereo partly drawn),.,-3.2,13,15,1.8,i,-3,.,.,.
NC(=O)COc1ccccc1,-7,.,7,8,-1.8,i,2,-5,-7,-1.0
Nc1nnc(SCn2nnc3ccccc3c2=O)s1,-26,-1.5,10,10,-5.2,i,-4,-5,-6,-1.1
Cc1nn(-c2ccccc2)c2c1C1(C(=O)N(C)c3ccccc31)C(C#N)=C(N)O2 (stereo not drawn),-1,.,.,.,.,.,-4,-28,29,-5.2
CC(C)(C)NC(=O)CN(C(=O)c1snc(C(=O)NC2CCCCC2)c1N)c1ccccc1F,9,4.4,-3,-9,3.6,i,-7,-6,.,3.6
O=C(OC(C(=O)Nc1cc(Cl)cc(Cl)c1)c1ccccc1)C1=COCCO1 (stereo not drawn),4,.,.,.,.,.,0,-1,8,-0.5
O=C(O)c1ccc(N/N=C/c2ccncc2)cc1,-1,0.7,-1,-7,-3.3,i,-1,-12,11,3.9
O=C(NCCN1CCOCC1)c1ccc2c(c1)N(Cc1ccc(F)cc1)C(=O)CS2,-15,1.5,-3,-2,-2.4,i,.,-5,-14,-0.5
CCOC(=O)N1CCN(C(=O)c2cn(CC)c3ccc(S(=O)(=O)N(C)C4CCCCC4)cc3c2=O)CC1,1,0.7,0,1,-2.2,i,-1,5,-34,-0.3
COc1cc(Br)cc(/C=N/NC(=O)Cc2ccccc2)c1O,-11,79*,-13,2,-3.5,i,20,0,-1,-1.6
COC/C=C/C1=CC(=O)C[C@H](c2ccc3c(c2)OCO3)C1,.,-11,-3,-13,0.8,i,0,.,14,.
COC(=O)CCC(=O)OC1(C)C(=O)C2=CN(CCN3CCOCC3)C(c3ccc(OC)cc3)=CC2=C(Br)C1=O (stereo not drawn),4,.,.,.,.,.,-2,13,-20,0.4
Clc1ccc(-c2cn3cc(Br)ccc3n2)cc1Cl,-12,-7.0,.,.,.,i,5,-8,-20,1.7
CCCCC(=O)NC(=S)Nc1cccc(Cl)c1N1CCCCC1,-12,-6.2,19,5,-1.5,i,-2,-4,0,0.4
CN(C)c1nc(OCCNC(=O)COc2ccc(Cl)cc2Cl)nc(N2CCOCC2)n1,-2,.,.,.,.,.,.,-3,-2,6.6
CC(OC(=O)c1ccc(-n2cnnn2)cc1)C(=O)NCc1ccccc1 (stereo not drawn),-10,-1.2,7,9,2.7,i,0,-1,1,3.6
O=C(/C=C/c1ccccc1F)N1CCN(c2ccccn2)CC1,-9,0.1,-26,-21,-9.6,i,1,15,1,5.1
Cc1cccc(CCNC(=O)c2nnc(Cc3ccc(Cl)cc3)o2)c1,3,-7.5,3,8,-4.1,i,-5,-4,.,3.7

Three entries from above, arranged by their value in ALR H2O2 inh, largest number first.
structure	AF4-AF9 inh	Ecoli rRNA inh	Ecoli rRNA inh OD600	Ecoli rRNA inh RFP	FGF22 binding	ALR H2O2 inh	RanGTP-Impb inh
O=C(O)c1ccc(N/N=C/c2ccncc2)cc1	0.7	-1	-7	-3.3	i	11	3.9
CN(C)c1nc(OCCNC(=O)COc2ccc(Cl)cc2Cl)nc(N2CCOCC2)n1	.	.	.	.	.	-2	6.6
COC(=O)CCC(=O)OC1(C)C(=O)C2=CN(CCN3CCOCC3)C(c3ccc(OC)cc3)=CC2=C(Br)C1=O (stereo not drawn)	.	.	.	.	.	-20	0.4

Other results.
smiles,T cruzi inh,AF4-AF9 inh,Ecoli rRNA inh,Ecoli rRNA inh OD600,Ecoli rRNA inh RFP,FGF22 binding,Beta cell apopt,Calb FLC,ALR H2O2 inh,RanGTP-Impb inh
CC(C)c1c(C(=O)N/N=C/c2ccc(Cl)cc2Cl)nnn1-c1nonc1N,10,-5.5,-1,12,-1.9,i,9,-11,-9,-1.2
COc1ccc(-c2cc(C(=O)N3CCCCC3)c3ccccc3n2)cc1OC,18,0.6,-5,-6,1.6,i,.,8,2,6.1
COc1cc(C2=NOC(C(=O)NC3CCCCC3)C2)cc(OC)c1OC (stereo not drawn),-2,.,.,.,.,.,-1,10,-12,4.1
COc1ccc(NC(=O)Nc2ccc3c(c2)CCC3)cc1,1,-1.5,9,23,3.8,i,0,3,-5,-3.8
CCCCCCCCOc1ccc(C2CC(=O)NC2=O)cc1 (stereo not drawn),14,-0.1,7,2,-1.1,i,.,-11,-3,?
Cc1cc(C(=O)OCC(=O)NCc2ccco2)c(C)n1-c1ccc(F)cc1,-34,.,.,.,.,.,22,-9,-3,1.4
CCCCn1c(N)c(N(CC)C(=O)CSCC(=O)Nc2ccc(OC)cc2)c(=O)[nH]c1=O,-13,1.2,3,9,-2.5,i,-7,-3,.,-3.4
CCN1CC(CN(C)Cc2cn(-c3cccc(C)c3)nc2-c2cccc(F)c2)CC1=O (stereo not drawn),12,4.5,-11,-14,20,i,6,10,.,6.3
COCCC(=O)Nc1ccc2c(c1)CN(C(=O)CCSC)CC2,8,-2.3,20,19,1.9,.,-2,-14,-4,1.9
Cc1ccc(-c2nnn(CC(=O)N3c4ccccc4CCc4ccccc43)n2)cc1,58*,-0.9,-6,-8,-4.5,i,-6,26,.,-1.2
CN(CC(=O)Nc1ccc(F)cc1)C(=O)c1ccc(OCc2cn3ccccc3n2)cc1,.,-1.1,4,-13,-15,i,-4,.,-3,.
CCOC(=O)C1C(=O)C=C(Nc2ccccc2F)CC1c1ccccc1 (stereo not drawn),-14,-0.3,5,1,-5.9,i,5,12,.,1.1
Cc1cccc(-n2c(C)cc(/C=N/NC(=O)c3ccc(CN4CCOCC4)cc3)c2C)c1,18,15,2,-17,6.5,i,-6,6,99*,1.6
Cc1ccc(NC(=O)C2CCCN(S(=O)(=O)c3c(C)noc3C)C2)c(Br)c1 (stereo not drawn),-11,-0.5,7,9,0.1,i,-8,7,5,1.2
CCN(C(=O)COC(=O)CNC(=O)c1ccc(F)cc1)C1CCS(=O)(=O)C1 (stereo not drawn),-4,-1.8,13,19,0.8,i,-3,27,-3,-2.9
COc1cc2c(cc1OC)C(C)N(C(=O)c1cc3ccccc3o1)CC2 (stereo not drawn),.,6.9,-59,-78,-28,i,-1,24,-1,2.2
CC(=O)N/C(N)=N/c1nc2cc([N+](=O)[O-])ccc2o1,-5,0.0,-4,-2,-1.5,i,-2,9,-1,1.4
CC1(C)CC(=O)C2=C(C1)N(c1ccc(F)cc1)C(=O)CC2c1cccnc1 (stereo not drawn),-6,-3.4,9,10,1.9,i,.,3,-13,-1.4
Cc1ccc2nc(NC(=O)CCn3c(=O)sc4ccccc43)sc2c1,9,-4.2,-6,-51,11,i,3,-3,-14,3.4
O=C(Nc1ccc2c(c1)OCO2)c1ccc([N+](=O)[O-])cc1[N+](=O)[O-],51,5.4,-19*,8.2*,-3.2*,i,6,-3,.,-0.8
Cc1[nH]c2ccccc2c1SCc1nnc(SCc2ccc(Cl)cc2)n1C,59*,-1.0,-27,-37,-4.8,i,-1,-7,-3,-3.8
CCOC(=O)NS(=O)(=O)c1ccc(CCNC(=O)c2cc(C)on2)cc1,-13,.,.,.,.,.,4,-19,3,1.6
COc1ccc(NC(=O)N(C)C[C@@H]2Oc3c(NC(=O)Nc4c(C)noc4C)cccc3C(=O)N([C@@H](C)CO)C[C@@H]2C)cc1,.,-1.5&-1.8,1&6,1&20,-2.9&-2.4,i,-11,.,1,.
O=C(NCC1CCCO1)c1ccc(Br)s1 (stereo not drawn),-1,1.0,2,8,1.8,i,-4,-5,-2,-1.9
CCOC(=O)N1CCC(NC(=O)c2cc(S(=O)(=O)N3CCCCC3)ccc2F)CC1,6,1.5,4,8,-2.7,i,1,0,-7,1.0
COc1ccc(/C=C/C(=O)NCC(=O)N2CCC(N(C)CCN3CCOCC3)CC2)cc1OC,32,-2.2,0,8,2.5,i,2,0,-8,-1.4
Cn1cc(C(=O)C(=O)N2CCCC2)c2ccccc21,19,3.7,3,11,1.0,i,-11,-18,-7,7.5
CN(C)/C=N/c1ncc(C(=O)c2ccccc2)s1,3,.,.,.,.,.,-8,32,1,2.0
CCc1ccc(NC(=O)CCNC(=O)Cn2cnc3ccccc3c2=O)cc1,0,1.6,1,4,-1.2,i,1,-3,6,3.1
Cc1ccccc1C(=O)NNC(=S)Nc1cccc(C(F)(F)F)c1,-4,-21,-57,-80,-26,i,15,-1,.,-4.1
Cc1nnc(SCC(=O)NCC(=O)Nc2ccc(F)c(F)c2F)n1N,.,-1.4,8,12,-0.6,i,2,.,-13,.
Cc1sc2nc(CN(C(=O)c3cccs3)C3CCCC3)[nH]c(=O)c2c1C,-5,.,.,.,.,.,2,3,-9,2.8
O=C1C=C(c2cccc3c2oc2ccccc23)CCC1,12,3.0,-51,-76,-17,i,-9,-11,.,?
CN(C)c1cccc(C(=O)OCC(=O)Nc2ccccc2Cl)c1,-21,0.4,5,2,-3.4,i,6,24,19,3.4
COc1ccc(NC(c2ccccc2)c2ccncc2)cc1 (stereo not drawn),1,2.5,1,6,-2.8,i,-4,-6,12,?
O=C(Nc1ccccc1C(F)(F)F)c1cc2ccccc2o1,-11,3.0,5,10,-0.7,i,-5,-10,-3,-1.0

Some entries already given with just AF4-AF9 inh, Calb FLC and Ecoli rRNA inh OD600.
SMILES | AF4-AF9 inh | Calb FLC | Ecoli rRNA inh OD600
CN(C)c1cccc(C(=O)OCC(=O)Nc2ccccc2Cl)c1 | 0.4 | 24 | 2
O=C1C=C(c2cccc3c2oc2ccccc23)CCC1 | 3.0 | -11 | -76
CCOC(=O)NS(=O)(=O)c1ccc(CCNC(=O)c2cc(C)on2)cc1 | . | -19 | .
CCc1ccc(NC(=O)CCNC(=O)Cn2cnc3ccccc3c2=O)cc1 | 1.6 | -3 | 4

Quoted at random: three records from the list, in no set order.
smiles,T cruzi inh,AF4-AF9 inh,Ecoli rRNA inh,Ecoli rRNA inh OD600,Ecoli rRNA inh RFP,FGF22 binding,Beta cell apopt,Calb FLC,ALR H2O2 inh,RanGTP-Impb inh
COC(=O)CCC(=O)OC1(C)C(=O)C2=CN(CCN3CCOCC3)C(c3ccc(OC)cc3)=CC2=C(Br)C1=O (stereo not drawn),4,.,.,.,.,.,-2,13,-20,0.4
C[C@@H]1C(=O)O[C@H]2CC34[C@H]5C[C@@H](C(C)(C)C)[C@]36[C@@H](OC(=O)[C@@H]6O)O[C@@]4(C(=O)O5)[C@]21O (stereo partly drawn),.,-3.2,13,15,1.8,i,-3,.,.,.
CN(C)c1nc(OCCNC(=O)COc2ccc(Cl)cc2Cl)nc(N2CCOCC2)n1,-2,.,.,.,.,.,.,-3,-2,6.6

This is a subset; rates above refer to the full screens.
